Screening data deposited in PubChem BioAssay by National Center for Advancing Translational Sciences (NCATS).
StopGo FLuc – FMDV 2A StopGo reporter, firefly signal; actives 0.23% (n = 120,000); Potency, µM (series often up to 57.5 µM), without a hit: top-dose signal change, negative = less light; HEK cells with a luciferase reporter of 2A StopGo recoding; AID 1745856; active = well fitted falling curve with a large enough effect; inconclusive = small, poorly fitted or top-dose-only effect; inactive = no such curve, though single readings can be large or run the other way; note: nearly all actives have a fitted effect of over 60% in size; overnight with compound
StopGo RLuc – lowers the Renilla signal of an FMDV 2A StopGo reporter | HEK cells with a luciferase reporter of 2A StopGo recoding | Potency, µM (highest dose often 57.5 µM), without a hit: at the highest dose signal change, negative = less light | actives 0.32% (n = 120,000) | AID 1745857; active means well fitted falling curve with a large enough effect; inconclusive means small, poorly fitted or top-dose-only effect; inactive means no such curve, though single readings can be large or run the other way; note: nearly all actives have a fitted effect of over 55% in size; overnight with compound
Numbers without * were called inactive; u = inconclusive; & = joins results of further samples; [ ] = remark or other dose. % is set by controls: 0 for no effect and ±100 for the full control effect; potency is the fitted concentration of half-maximal effect.

molecule,StopGo FLuc,StopGo RLuc
COC(=O)c1ccc(COc2ccc(OCc3ccccc3)cc2)o1,0.0%,0.0%
CCCc1ccc(S(=O)(=O)Nc2cc(C(=O)N(C)CC(=O)NC)ccc2N2CCNCC2)cc1,24.2%,0.9%
CCCc1nc2ccccc2c(C(=O)OCC(=O)NC(C)(C)C)c1CC,u,-24.4%
COc1ccc(CC(=O)Nc2ccc3nc(Nc4ccc(OC)cc4)cc(C)c3c2)cc1,u,0.0%
CCOc1ccc(C=Nc2ccc(N(C)C)cc2)cc1,0.0%,5.9%
O=C1OC(OC(=O)c2cccnc2Nc2cccc(C(F)(F)F)c2)c2ccccc21 (stereo not given),-14.6%[11.5 µM],-1.6%
Cc1cc(=O)oc2cc3occ(-c4ccc5ccccc5c4)c3cc12,85.2%[activator],32.5%[activator]
CSC1=N/C(=C\c2ccc(Cl)c(Cl)c2)C(=O)S1,21.5%,9.1%
O=C(Cn1nc(Br)nc1Br)c1ccc(F)cc1,2.3%,-4.8%
CC(C)(C)c1ccc(C(=O)NC(Nc2cccc(C(F)(F)F)c2)C(Cl)(Cl)Cl)cc1 (stereo not given),u,u
CCOc1ccc(CN2C(=O)c3ccccc3Sc3ccc(C(=O)NCCCN4CCOCC4)cc32)cc1,20.3%,51.5%[activator]
CC(C)NC(=O)c1cccc2c1CCCN2Cc1nc(-c2cccc(Cl)c2)no1,u,25.1µM*
CCOc1ccc(N(CC)C(=O)C(=O)c2c(C)n(C)c3ccccc23)cc1,27.5%,30.4%[activator]
O=C(CSc1oc(-c2cccs2)nc1S(=O)(=O)c1ccccc1)Nc1ccc(F)cc1,-2.0%,101.6%[activator]
CCCOc1ccc(-c2nc3ccccc3c(C(=O)O)c2C)cc1,28.3%,u
COc1ccc(N2CCN(S(=O)(=O)c3csc(C(N)=O)c3)CC2)cc1,-8.3%,-15.1%
CN1CCN(NC(=O)c2ccccc2Br)CC1,11.3%,-1.8%
Cc1ccc(-c2nc3cc(NC(=O)c4ccc5c(c4)OCO5)ccc3o2)c(C)c1,0.0%,-2.4%
O=C(NCc1ccccc1)c1cc(-c2ccccn2)nc2ccccc12,26.0%,79.2%[activator]
O=C(Nc1cccnc1)C1CCC1,-1.6%,8.4%
Cn1c(=O)n(Cc2nc(-c3ccccc3)no2)c(=O)c2ccccc21,12.4%,16.4%
O=C(CCC1CCCCC1)Nc1ccc2sc3ccccc3c(=O)c2c1,68.0%[activator],7.7%
Cc1ccc(S(=O)(=O)c2nnn3c2nc(NCc2ccccc2)c2sccc23)cc1,-30.0%,-5.6%
COc1ccc(NC(=O)Cn2c(CCC(=O)O)ccc2-c2ccccc2)cc1Cl,13.0%,-2.6%
CCNC(=O)NC(=O)C(C)OC(=O)c1nn(CC(C)C)c(=O)c2ccccc12 (stereo not given),-6.8%,-1.4%
Cc1ccc2nc(-c3ccc(Cl)c(NC(=O)c4cc([N+](=O)[O-])ccc4N4CCOCC4)c3)oc2c1,173.1%[activator],3.5%
O=C(O)CC1c2ccccc2CCN1C(=O)Nc1cc(Cl)ccc1Cl (stereo not given),-5.6%,-9.0%
Cc1ccc(/C=C/C(=O)N/N=C/c2ccccc2)cc1,77.4%[activator],35.1%[activator]
CC(C)(C)C(=O)Nc1cccc(C(=O)NOCc2ccccc2)c1,175.7%[activator],15.1%
COc1ccccc1C1CC(=O)NC(SCC(=O)Nc2ccc(F)cc2)=C1C#N (stereo not given),u,-15.5%
CCOC(=O)c1ccc(Nc2nc3ccccc3n3c(C)nnc23)cc1,0.3%,0.3%
NC(=O)c1c(NC(=O)c2cc(-c3ccc(F)cc3)on2)sc2c1CCCC2,-11.4%,-6.8%
COCCCNc1nc2c(c(=O)[nH]c(=O)n2C)n1CCO,3.2%,-12.7%
CC(C)NC(=O)COC(=O)c1cc(-c2ccc(Cl)s2)nc2ccccc12,-4.6%,-10.3%
CCC1(C)Cc2c(sc3nc(SC)n(-c4ccc(C)cc4)c(=O)c23)CO1 (stereo not given),-8.1%,-5.5%
Cc1cccc(CNC(=O)CN2C(=O)CCn3nc(-c4cn(C)c5ccccc45)cc32)c1,9.3%,-6.8%
CN(CC(=O)N1CCc2ccccc2C1)S(=O)(=O)c1ccc(Br)cc1,-0.4%,14.8%
COc1ccc(OC)c(-c2noc(N3CCN(c4cc(C)ccc4C)CC3)n2)c1,-5.6%,-9.4%
CC(NC(=O)CSc1ccccc1)c1ccc2c(c1)OCCO2 (stereo not given),11.7%,-2.9%[1.06 µM]
Cn1c(=O)c2c(nc(N3CCN(c4cccc(Cl)c4)CC3)n2Cc2ccc(F)cc2)n(C)c1=O,u,u
CC(C)C(=O)Nc1nonc1-c1ccc(Br)cc1,-14.5%,38.7%[activator]
CCc1c(C)nc(N2CCN(CC)CC2)[nH]c1=O,-0.8%,-1.0%
CCCN(CCC)CCCNC(=O)c1sc2nc3n(c(=O)c2c1C)CCC3,-13.6%,-12.4%
Cc1cc2oc(C(=O)NCC(c3ccco3)N3CCOCC3)c(C)c2cc1C (stereo not given),11.2%,-4.8%
O=C(c1nn(-c2ccccc2)c(=O)c2ccccc12)N1CCN(CCN2CCCC2)CC1,7.2%,-5.1%
O=C(c1ccc(Cl)cc1Cl)N(CCS(=O)(=O)N1CCCCC1)Cc1cccnc1,-8.3%,7.1%
O=C(CC1(O)C(=O)N(Cc2ccccc2)c2ccccc21)c1ccccc1Cl (stereo not given),-19.7%,14.0%
O=C(NC1CC(=O)N(c2ccc(F)cc2)C1)C1CCCC1 (stereo not given),-9.0%,-5.9%
Cc1ccccc1C(=O)O/N=C/c1ccc(Br)cc1,37.7%[activator],-12.9%
CCN1CCN(Cc2c(O)ccc3oc(C)c(C(=O)Nc4cccc(Cl)c4C)c23)CC1,3.4%,-9.0%
Brc1ccc(-c2nc(-c3ccccc3)no2)cc1,197.8%[activator],13.2%
CN(CC(=O)NC1(C#N)CCCC1)c1ccccc1,11.5%,14.8%
CC(=O)C1=C(O)C(=O)NC1c1ccc(Br)cc1 (stereo not given),9.9%,14.1%
Cn1nc(C(=O)NCc2ccc(F)cc2)c2c1-c1ccccc1SC2,-6.8%,27.2%
CCCN(C(=O)c1cc2c(=O)n(CC)c3ccccc3c2s1)c1ccccc1F,-30.6%,-12.6%
COc1ccc(CNC(=O)CC(C)CC2=NS(=O)(=O)c3ccccc3N2)cc1 (stereo not given),20.4%,106.5%[activator]

(cont.)
molecule,StopGo FLuc,StopGo RLuc
COc1ccc(CNC(=O)CSCc2cnn(-c3ccccc3)c2-n2cccc2)cc1,-4.2%,-6.2%
Cc1cc(NC(=O)c2ccc3c(c2)OCCO3)cc(-c2nc3ccccc3o2)c1O,9.5%&-3.3%,-5.5%&-12.2%
Cc1ccc(Cl)cc1NC(=O)CN1C(=O)COc2ccc(S(=O)(=O)N3CCOCC3)cc21,19.2%,-17.8%
CCc1cnc2c(c1SCC(=O)c1ccccc1)c(=O)n(C)c(=O)n2C,-1.3%,-0.6%
COc1ccc(NC(=O)CCn2ccnc2)c(OC)c1,-8.9%,-9.0%
COc1ccccc1N1CCN(c2ccc(=O)n(CC(=O)NCc3ccc(F)cc3)n2)CC1,-0.8%,19.9%
COc1ccc(C(=O)N2CC(=O)Nc3ccc(F)cc3C2c2ccc(F)cc2)c(OC)c1 (stereo not given),-4.5%,55.4%[activator]
Cc1nn(-c2ccccc2)c2sc(C(=O)Nc3cccc(Cl)c3)cc12,4.1%,-6.3%

Part of the list above in order of heavy-atom count, low to high.
molecule,StopGo FLuc,StopGo RLuc
CSC1=N/C(=C\c2ccc(Cl)c(Cl)c2)C(=O)S1,21.5%,9.1%
CCCc1nc2ccccc2c(C(=O)OCC(=O)NC(C)(C)C)c1CC,u,-24.4%
NC(=O)c1c(NC(=O)c2cc(-c3ccc(F)cc3)on2)sc2c1CCCC2,-11.4%,-6.8%
Cc1cc2oc(C(=O)NCC(c3ccco3)N3CCOCC3)c(C)c2cc1C (stereo not given),11.2%,-4.8%
Cc1cc(NC(=O)c2ccc3c(c2)OCCO3)cc(-c2nc3ccccc3o2)c1O,9.5%&-3.3%,-5.5%&-12.2%

(continued)
molecule,StopGo FLuc,StopGo RLuc
COc1ccc(C(C)=O)c(F)c1,-0.2%,6.2%
CCOC(=O)c1c(C)n(Cc2ccccc2)c2ccc(O)cc12,14.8%,-12.5%
CCCNC(=O)Cn1nc(-c2ccc(C)c(C)c2)c2cnc3ccc(OC)cc3c21,14.9%,-0.9%
COc1cc(C(=O)Nc2cc3c(cc2C)n(C)c(=O)c(=O)n3C)cc(OC)c1OC,-12.4%,-25.6%
Cn1cc(S(=O)(=O)N2CCCCCC2)cc1C(=O)N1CCN(c2cccc(C(F)(F)F)c2)CC1,u,u
Cc1nc2nc(C(F)(F)F)[nH]n2c(=O)c1Cc1cccc(Cl)c1,-1.2%,-18.9%
Cc1cc(C)n(C(=O)c2cn(C)nc2S(=O)(=O)N2CCN(c3ccccc3Cl)CC2)n1,-7.5%,11.9%
Cc1cc(C)cc(NS(=O)(=O)c2ccc(-c3cnc(C)o3)cc2)c1,u,214.9%[activator]
Cc1cc(C)cc(NC(=O)N2CCC(CN3CCCCCC3)CC2)c1,-22.9%,-16.7%
Cc1ccc(C(O)CNC(=O)c2ccc3c(c2)NC(=O)CS3)cc1 (stereo not given),19.1%,3.6%
CCOC(=O)c1c(C)[nH]c(C)c1S(=O)(=O)NCC(=O)Nc1cc(C)ccc1OC,-17.9%,18.9%
COc1ccc(/C=C/C(=O)Nc2ccc(Cl)c(Cl)c2)cc1OC,5.2%,-8.7%
CCc1ccc(NC(=O)c2ccc(F)c(S(=O)(=O)N3CCC4(CC3)OCCO4)c2)cc1,u,u
c1ccc2c[n+](Cc3cccc4ccccc34)ccc2c1,u,u
O=[N+]([O-])c1ccc(N2CCC(O)CC2)c2ccncc12,-9.7%,-13.7%
COc1ccccc1N1CCN(CCCNC(=O)Cn2ncc3c([nH]c4ccccc43)c2=O)CC1,0.6%,-9.1%
CC(C)c1ncc(Cl)c(C(=O)O)n1,-1.6%,1.6%
CC(=O)Nc1ccc2nc(SCCOc3ccccc3)sc2c1,60.6%[activator],16.0%
Cc1ccc(-c2noc(-c3cc4cccc(O)c4oc3=O)n2)cc1,40.8%[activator],-9.9%
Cn1c(=O)c2[nH]c(N3CCC(C(=O)O)CC3)nc2n(C)c1=O,9.5%,6.5%
O=C(Nc1nc(-c2ccc(Cl)cc2)cs1)C1CCN(C(=O)c2ccoc2)CC1,u,10µM*
COc1ccccc1CNC(=O)CN1C(=O)CCn2nc(-c3ccccc3)cc21,-17.2%,-18.5%
COc1cccc(-c2cc(C(=O)Nc3cnn(Cc4ccc(Cl)cc4Cl)c3)no2)c1,-13.7%,6.5%
CCC(=O)N1c2ccc(S(=O)(=O)CCC(=O)NCc3cccc(OC)c3)cc2CC1C (stereo not given),-2.1%,-3.2%
Cc1ccc(CNS(=O)(=O)c2c(C)nc3scc(C)n3c2=O)cc1,-12.0%,-4.0%
CCOc1ccc(NC(=O)NCCCN2CCN(c3ccc(F)cc3)CC2)cc1,-15.8%,-14.8%
Cc1ccc(-c2cc(C(=O)NC(C)C(=O)N(C)C)c3ccccc3n2)o1 (stereo not given),11.1%,-4.8%
CCOC(=O)C1CCN(C(=O)c2cn(-c3ccccc3)nc2-c2ccc(Cl)cc2)CC1,17.9%,1.3%
CCN(Cc1cc(=O)oc2c(C)c(O)ccc12)C1CC1,9.0%,14.0%
CN(CCOc1ccc(C#N)cc1)C1CCCc2ccccc21 (stereo not given),9.8%,-10.6%[1.06 µM]
CC(C)(C)CC(=O)N1CCC2(CC1)OCCN2S(=O)(=O)c1ccccc1,-2.8%,16.2%
COc1ccccc1-c1nnc(C2CCN(C(=O)c3ccc(C)cc3)CC2)o1,4.7%,-8.4%
COCC(C)NC(=O)CSc1nc(-c2ccccc2)c(-c2ccccc2)o1 (stereo not given),-15.8%,-6.1%
COc1ccc(NC(=O)Cn2c(Nc3ccc(F)c(C)c3)nc(C)cc2=O)cc1OC,-2.9%,-3.5%
CCCCC(CC)CNC(=O)CCCCn1c(=O)[nH]c2ccsc2c1=O (stereo not given),-10.5%,48.0%[activator]
COc1ccc(-c2nc(C)c(-c3ccccc3)s2)cc1,267.4%[activator],24.8%
CCc1ccc(Sc2cc(C(=O)NC(C)CC)c3ccccc3n2)cc1 (stereo not given),0.0%,-13.5%
CCCn1cc(S(=O)(=O)c2ccc(CC)cc2)c(=O)c2ccccc21,-10.2%,80.6%[activator]
N#Cc1cccc(COC(=O)CCC(=O)c2ccc3c(c2)OCCCO3)c1,-2.1%,8.6%
CC(=O)c1cccc(NC(=O)CCCSc2nc(-c3ccco3)cc(C(F)(F)F)n2)c1,-2.1%,215.7%[activator]
COc1cc(C(=O)Nc2ccc3oc(-c4ccc5ccccc5c4)nc3c2)cc(OC)c1OC,15.2%,-9.4%
Cc1cc(Nc2ccc(F)cc2C)n2nc(-c3ccco3)nc2n1,12.4%,11.6%
CCc1ccc(C(=O)C(C)OC(=O)c2ccc(CO)cc2)cc1 (stereo not given),31.0%[activator],8.5%
